AID504770: E. coli YBA685 growth inhibition, screen for V. cholerae RctB inhibitors. 130,000 tested, 0.27% active. z-score (no concentration beside the values). E. coli YBA685 rctB-dependent plasmid, OD600 growth, 3 h; active compounds read low. AID 504770;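 active means z-score under -2 on both plates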;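 further: wells of about 30 µL received 100 nL stock; score is relative to mean and SD of the test wells; the first replicate is given; strong numbers were not always called active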
CapD inh: blocks the Bacillus anthracis CapD enzyme; 140,000 tested, 0.23% active; AID 492967; purified CapD enzyme, fluorescence intensity read-out; active compounds read low; some hits fall short of the stated cut; z-score (concentration not given with the values);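 active means z-score under -4 in either of two replicates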;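 further: stock transfer was 100 nL into about 40 µL; score is relative to mean and spread of the plate; one replicate is shown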
* = called active by the depositor; x = not tested or not shown.

compound	AID504770	CapD inh
COc1ccnc(Oc2ccc(S(=O)(=O)N3CCOCC3)cc2)c1C#N	x	-0.11
COc1cccc(-n2c(C)nc3c(cnn3-c3ccc(Cl)cc3)c2=O)c1	0.3	4
COc1cccc(NC(=O)CNCC(O)c2ccccc2)c1 (centres undefined)	-0.7	x
CCNc1nc(NC(C)C)nc(Oc2ccccc2C(=O)OC)n1	x	0.51
CC12CCC(C1)C(C)(C)C2NC(=O)c1ccco1 (centres undefined)	2.2	-0.67
CCCC(CCC)C(=O)Nc1ccc(NC(=O)c2ccco2)cc1	2.1	x
O=C(CSc1nc2ccccc2[nH]1)OCc1ccccc1	x	0.54
Nc1ccc2nc(SCC(=O)c3ccc(F)cc3)sc2c1	-0.5	-1.1
COc1ccc(OC)c(NC(=O)c2sc3ncn(CC(=O)Nc4ccc(C)c(Cl)c4)c(=O)c3c2C)c1	x	0.39
O=C(Oc1ccc2c(=O)c(-c3ccccc3)coc2c1)N1CCOCC1	0.2	-0.39
N#CC(C#N)=C(C#N)c1ccc(N(c2ccccc2)c2ccccc2)cc1	-0.05	26
S=c1[nH]nc(-c2cccnc2)n1C1CCCCC1	0.5	6.1
O=C(CC(C(=O)O)c1cccc(Cl)c1)c1ccccc1 (centres undefined)	0.2	-0.2
CCc1ccc(C(=O)CSc2cccc[n+]2[O-])cc1	-1.9	0.045
CCOc1cc(C2Nc3ccc4ccccc4c3C3=C2C(=O)CC(c2ccccc2)C3)ccc1O (centres undefined)	x	4.2
c1cncc(-c2nc3ccccc3s2)c1	-1.1	1.9
COC(=O)Cn1c(C)nc2ccccc21	0.85	0.26
CCCCNC(=O)CC1N=C2c3ccccc3N=C(SCC(=O)N3CCN(c4ccccc4)CC3)N2C1=O (centres undefined)	-0.65	0.85
COc1cc(OC)nc(CSCCNC(=O)CCl)n1	x	-0.27
CC(c1ccc(-n2cncn2)cc1)N(C)c1ncnc2sc3c(c12)CCCC3 (centres undefined)	-0.1	x
CCc1ccccc1NC(=O)N1CCCC1C(=O)O (centres undefined)	-0.2	0.28
CC(=O)Nc1ccccc1OC(=O)c1sc2ccccc2c1Cl	-0.8	-0.89
O=C(NC1CCCC1)c1cccc(S(=O)(=O)N2CCCC2)c1	-0.05	-0.34
OC1CCN(Cc2c[nH]c3ccccc23)CC1	-1.1	-0.025
CCC1=C(C(=O)OC)C(c2cccc(O)c2)n2ncnc2N1 (centres undefined)	-1.8	x
Cc1cc2nc3s/c(=C\c4ccc(-c5cc(C)c(C)c([N+](=O)[O-])c5)o4)c(=O)n3c2cc1C	x	-1
COc1ccccc1N=c1scc(-c2ccco2)n1/N=C/c1ccccn1	0.9	x
CCc1ccccc1CSc1n[nH]c(=O)n1Cc1ccco1	-0.95	-0.46
CCCOC(=O)C1=C(C)NC2=C(C(=O)CC(c3ccc(OC)c(OC)c3)C2)C1c1ccccc1OC (centres undefined)	x	7.8
CCN(c1ccccc1)S(=O)(=O)c1ccc(CC(C)C)cc1	1.1	0.59
COc1ccc(CNC(C)=O)cc1	-0.95	-0.23
N#CCOC(=O)[C@H](Cc1ccccc1)N1C(=O)c2ccccc2C1=O	-0.55	x
O=c1/c(=C/c2cccs2)sc2nnc(-c3ccc(Cl)cc3)n12	2.4	-0.68
CCCc1cc(=O)n2c(nc3ccccc32)[nH]1	0.25	16
Cc1cccc(C)c1NC(=O)Nc1cccn(Cc2ccc(Cl)cc2)c1=O	x	49
Cc1cc(C(=O)NCc2ccc(S(N)(=O)=O)cc2)cs1	1.4	-0.05
COc1ccc(Cn2nnc3c(=O)[nH]c(C4CCCN(S(=O)(=O)c5ccccc5)C4)nc32)cc1 (centres undefined)	-0.85	1.1
O=C(O)Cc1cn(-c2ccccc2)nc1-c1ccccc1	-0.25	0.005
CC(=O)N/C(=C/c1ccccc1)C(=O)Nc1ccc(C)c(C)c1	-0.4	-0.2
Cc1ccc2nc(-c3ccc(O)c(O)c3)cn2c1	-1.5	38
CCOC(=O)C1=C(N)Oc2c(c(=O)[nH]c3ccccc23)C1c1ccc(OC)c(OC)c1 (centres undefined)	0	x
CC(C)Nc1nc(Cl)nc(Nc2ccc(-c3nc4ccccc4o3)cc2)n1	0.75	87
O=C(O)CN=CC1=C(O)CC(c2ccccc2)CC1=O (centres undefined)	-0.5	0.38
CC(C)(C)c1nc(N)nc(NNS(=O)(=O)c2ccccc2C(F)(F)F)n1	-0.95	-0.25
Cn1c(=O)c2c(ncn2Cc2cccc(Cl)c2)n(C)c1=O	x	0.71
CN1CC(=O)NC(=O)C1	-0.15	x
O=C(CN1C(=O)C2C3C=CC(C3)C2C1=O)N1CCN(c2ccccc2)CC1 (centres undefined)	1.6	-1.1
Clc1ccc2c(c1)CN(Cc1ccccc1)CO2	-2.2	0.8
Cc1ccc(N(Cc2ccc(C(=O)N3CCOCC3)cc2)S(C)(=O)=O)cc1C	-1.1	-0.15
COCCOC(=O)C1=C(C)OC(N)=C(C#N)C12C(=O)Nc1ccc(Br)cc12 (centres undefined)	1.8	-0.67
CCC(C)(C)C(=O)Nc1nnc(COC)s1	0.25	x
COC(=O)c1cn(Cc2ccc(C#N)cc2)c2ccccc12	-0.45	-0.41
C1CCC(Nc2nnc(SCC3CCCCO3)s2)CC1 (centres undefined)	-0.3	x
COc1ccc(C(=O)c2coc3ccc(O)c(CN4CCCCC4)c23)cc1	-0.05	-0.06
O=C(/C=C/c1ccccc1)Oc1ccc(-c2cnc3ccccc3n2)cc1	-0.2	0.04
O=c1[nH]c2c(cnn2-c2ccccc2)c(=O)n1-c1ccc(Cl)c(Cl)c1	-0.3	0.45
Brc1ccc(C2=NN(c3ccccc3)C3(SC(c4ccccc4)=NN3c3ccccc3)c3ccccc32)cc1 (centres undefined)	x	-0.45
NC(=O)C(Cc1ccccc1)NC(=O)c1ccc(Cl)cc1Cl (centres undefined)	-0.5	-0.47
COc1cccc(-c2nnc(SCC3CNC(=O)O3)n2-c2ccc(Cl)cc2)c1 (centres undefined)	0	x
CCC(C)C1=NN(C(=O)c2ccccc2)C(O)(C(=O)OC)C1 (centres undefined)	-0.3	-0.38

Reprinted from the part before: 7 entries; new compounds follow.
compound	AID504770	CapD inh
COc1ccc(C(=O)c2coc3ccc(O)c(CN4CCCCC4)c23)cc1	-0.05	-0.06
O=C(/C=C/c1ccccc1)Oc1ccc(-c2cnc3ccccc3n2)cc1	-0.2	0.04
O=c1[nH]c2c(cnn2-c2ccccc2)c(=O)n1-c1ccc(Cl)c(Cl)c1	-0.3	0.45
Brc1ccc(C2=NN(c3ccccc3)C3(SC(c4ccccc4)=NN3c3ccccc3)c3ccccc32)cc1 (centres undefined)	x	-0.45
NC(=O)C(Cc1ccccc1)NC(=O)c1ccc(Cl)cc1Cl (centres undefined)	-0.5	-0.47
COc1cccc(-c2nnc(SCC3CNC(=O)O3)n2-c2ccc(Cl)cc2)c1 (centres undefined)	0	x
CCC(C)C1=NN(C(=O)c2ccccc2)C(O)(C(=O)OC)C1 (centres undefined)	-0.3	-0.38
Cc1sc2ncnc(SCC(=O)NC34CC5CC(CC(C5)C3)C4)c2c1C	x	-0.52
Cc1ccc(S(=O)(=O)N=C2SCCCS2)cc1	-0.15	x
NC(=O)Cc1cc2ccccc2n1Cc1ccccc1	0.45	-0.52
COC(=O)c1ccc2c(c1)N(C)S(=O)(=O)/C(=C\Nc1ccc(Cl)cc1)C2=O	1.4	0.48
Cc1ccc2c(c1)C(c1ccccc1C(F)(F)F)CC(=O)N2 (centres undefined)	x	-0.37
N#CC(Nc1ccc(Cl)cc1Cl)c1ccccc1 (centres undefined)	0.1	0.97
FC(F)(F)c1ccc2sc(=S)[nH]c2c1	-1.5	-1.4
CCCC(=O)Nc1nc(CC(=O)OCC)cs1	-1	x
CCOc1ccc(-n2cc(-c3ccccc3)c3c(SCC)ncnc32)cc1	x	60
CCCCn1c(O)c(C#N)c(C)c(N=Nc2ccc(C#N)cc2)c1=O	x	0.13
COc1ccc(C2=NN(CC(=O)NCCN3C(C)CCCC3C)C(=O)CC2)cc1 (centres undefined)	-0.7	-0.57
O=C(c1ccc(CSc2ncn[nH]2)cc1)N1CCc2ccccc21	-0.05	x
O=C(O)c1cc2cc(Br)cc(Br)c2oc1=O	0.95	-0.42
CCC(=O)NC(Nc1ccc(S(=O)(=O)Nc2ccc(OC)nn2)cc1)(C(F)(F)F)C(F)(F)F	0.1	0.5
N#C/C(=C\N1CCC(n2cccc2)CC1)S(=O)(=O)c1ccccn1	-0.7	0.24
CC1CCCC(NC(=O)c2ccc3c(c2)N(Cc2ccccc2)C(=O)CS3=O)C1C (centres undefined)	-0.15	-0.28
CN1CCN(C(=O)CC(c2ccccc2)c2ccccc2)CC1	0.15	0.47
OCCSc1c(F)c(F)c(SCCO)c(F)c1F	-0.75	0.21
Cc1cc(NC(=O)c2cc(-c3ccccn3)nc3ccccc23)n[nH]1	0.15	x
N#Cc1cc(F)cc(F)c1NC(=O)c1cccs1	-0.05	-0.29
Cc1cccc(CCOC(=O)NC(CCCNC(=O)OCc2ccccc2)C(=O)OCc2ccccc2)c1 (centres undefined)	x	-0.3
CCCc1nc2c(o1)N(C(=O)OCC)C(N)=C(C#N)C21CCNCC1	-0.75	-0.2
Cc1ccc(N=C2N=C(N)c3ccccc32)cc1Cl	0.35	-1.6
CC(c1ccccc1)n1c(SCC(=O)N(C)C)nc2ccccc2c1=O (centres undefined)	-0.5	x
COc1ccc(/C=C(\C#N)C(=O)C(C)(C)C)cc1	0.9	x
CCOC(=O)C1(C)C=C(Nc2ccc(O)cc2)C(=O)N1c1ccc(O)cc1 (centres undefined)	x	6.2
O=C1c2ccccc2C(=O)N1CCn1c2ccccc2c2nc3ccccc3nc21	x	-0.35
COc1ccc(CCNC(=O)C(C(C)C)N2C(=O)c3ccccc3C2=O)cc1 (centres undefined)	0.45	-4.8*
O=C(CNC(=O)C12CC3CC(CC(C3)C1)C2)N1CCN(c2ccccc2Cl)CC1	-0.35	x
O=C(O)c1ccc(COc2ccc(Cl)cc2)o1	0.2	0.18
CCOC(=O)c1nn(-c2ccccc2)c(C#N)c1NC(=O)c1nn(CC)cc1Br	0	-1.1
CCOC(=O)C(=CNNC(=O)c1cnn(-c2ccc([N+](=O)[O-])cc2)c1C(F)(F)F)C(=O)OCC	x	-0.26
Cc1ccccc1NS(=O)(=O)c1ccc2[nH]cc(C(=O)NCc3ccccc3)c(=O)c2c1	-0.4	2.8
C=CCC(O)(CCN1CCCCC1)c1ccccc1 (centres undefined)	0.6	0.32
CC(C)CCOc1ccc2c3c(c(=O)oc2c1)CCC3	-0.8	4.2
O=C(O)C(Cc1ccccc1)NCc1c(O)ccc2c3c(c(=O)oc12)CCCC3 (centres undefined)	1.5	17
O=C1CCC(=O)N1OCCCOc1ccccc1	0.55	-0.01
CC1(C)CC(=O)C=C(OC(=O)c2ccc(C(C)(C)C)cc2)C1	0.4	-0.38
COc1ccccc1Cn1c(SC)nc2ccc(Br)cc2c1=O	x	0.4
COc1ccccc1C1SCCN1S(=O)(=O)c1ccccc1 (centres undefined)	0.75	0.14
CCc1ccc(NC(=O)CCCn2c(=O)c3cccn3c3ccccc32)cc1	0.45	0.74

Complete entries from above. Order of values: AID504770	CapD inh
`CCOC(=O)C(=CNNC(=O)c1cnn(-c2ccc([N+](=O)[O-])cc2)c1C(F)(F)F)C(=O)OCC` is listed with x	-0.26
`CCCc1nc2c(o1)N(C(=O)OCC)C(N)=C(C#N)C21CCNCC1` is listed with -0.75	-0.2
`CC(C)CCOc1ccc2c3c(c(=O)oc2c1)CCC3` is listed with -0.8	4.2
`C=CCC(O)(CCN1CCCCC1)c1ccccc1` (centres undefined) is listed with 0.6	0.32
`CCOC(=O)c1nn(-c2ccccc2)c(C#N)c1NC(=O)c1nn(CC)cc1Br` is listed with 0	-1.1

Source: PubChem BioAssay
